Screening data (PubChem)
PrP 5UTR inh = suppresses PrP 5' UTR mRNA reporter expression. 340,000 tested, 0.35% active. inhibition, % (test concentration not listed). cell-based PrP 5' UTR mRNA reporter, plate reader;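 active means every replicate at 50% or more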;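 further: 0 = median of the neutral control wells; tested in H4 reporter cells; numbers are from one replicate; inactives centre near -14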
Mtb hypoxia rep = Mtb hypoxia fluorescent reporter inhibition | M. tuberculosis hypoxia-regulated fluorescent reporter, fluorescence | fluorescence inhibition, % (no concentration beside the values) | 300,000 tested, 0.1% active;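 active means 35 to 45% if threefold the growth effect, above 45% if 1.5-fold the growth effect; inactive means the rest, general growth blockers included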;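 further: wells of about 50 µL received 100 nL stock; 0% = vehicle wells and 100% = reference inhibitor wells; whole bacteria with a GFP reporter of the hypoxia response; strong numbers were not always called active; many hits fall short of the cut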
Bead autofluor = flagged as autofluorescent in microsphere protease counterscreen; compound autofluorescence counterscreen, microsphere flow cytometry; active compounds read high; fluorescence intensity (test concentration not listed); 360,000 tested, 3.1% active; AID 624483;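 active means at least 3 SD above the mean of all compounds, about 16000 in these data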;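 further: 100 nL of 1 mM stock went into each well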
Sa RN4220 lethal = S. aureus RN4220 growth inhibition | OD600, 16 h | inhibition, % (concentration not given with the values) | 330,000 tested, 0.33% active | AID 1259311;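 active means z-score of -3 or lower and OD600 up to 0.18 on both plates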;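 further: plate controls were untreated cells for no effect and reference antibiotic for full effect; stock transfer was 100 nL into about 80 µL; one replicate is shown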
BJeLR viability = BJeLR cell viability loss; BJeLR (HRASV12) viability, CellTiter-Glo ATP luminescence, 48 h; reference of the scale not given here; 300,000 tested, 0.17% active; inhibition, % (no concentration beside the values);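 active means replicate mean above 50%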;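 further: 50 nL library stock added to about 25 µL; numbers are from one replicate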
ugtP null kill = compounds lethal to S. aureus RN4220 ugtP deletion mutant; growth inhibition, % (test concentration not listed); 330,000 tested, 0.54% active; AID 1259309; OD600 growth, 16 h; some inactives read as strong as hits;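 active means z-score under -3 and OD600 up to 0.15 on both plates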;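 further: plate controls were untreated wells for no effect and antibiotic for full effect; wells of about 80 µL received 100 nL stock; the first replicate is given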
Mtb hypoxia rep growth = second read-out of Mtb hypoxia rep, no call of its own (marks repeat the call); growth inhibition, %; measured here: M. tuberculosis growth (absorbance);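 0% = vehicle and 100% = reference antibiotic; read after six days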
Numbers without * were called inactive; · = not tested or not shown; & = joins results of further samples.

SMILES	PrP 5UTR inh	Mtb hypoxia rep	Mtb hypoxia rep growth	Bead autofluor	Sa RN4220 lethal	BJeLR viability	ugtP null kill
Cc1ccc(S(=O)(=O)N2CCC(=O)N2)cc1	-3	0	7	8877	3.0	10	5
Cc1cccc(OCC(=O)N(Cc2nnc(-c3ccccc3Cl)o2)C2CC2)c1	-5	15	13	8490	9.3	·	10
NC(=O)c1sc2nc3c(c(-c4ccco4)c2c1N)CCC3	37	0	-6	10619	4.2	3	62
O=C(OCC(=O)N1N=C(c2ccc(Cl)cc2)CC1c1ccco1)c1cccnc1 (centres undefined)	2	4	-2	3768	2.5	·	-12
CCOc1ccc(N/C=C/C(=O)c2ccccc2)c([N+](=O)[O-])c1	36	13	13	1971	-0.7	41	-7
O=C(O)c1ccc(N/N=C/c2cc(Br)cs2)cc1	-10	·	·	3843	·	5	·
CC(=O)OCc1c(C(F)(F)F)nn(C)c1Oc1cccc(C(F)(F)F)c1	-20	11	11	16385*	6.0	-12	8
COCCOC(=O)CSc1ncccc1-c1nc2cc(C)c(C)cc2[nH]1	-41	5	-7	3452	-13	25	3
O=c1c(-c2ccnn2-c2ccc(F)cc2)cnc2n1CCS2	-9	·	·	3740	-0.9	8	11
CCOc1ccccc1N1CCN(C(=O)CSc2ccc3c(c2)OCCO3)CC1	-28	14	8	4050	-0.3	·	3
CC(C)c1c(C(=O)N/N=C/C=C/c2ccccc2)nnn1-c1nonc1N	-21	·	·	5165	·	-9	·
CC1=CC(C)(C)N2C(=O)C3(N=C(N)NC(Nc4ccccc4)=N3)c3cc(C)cc1c32 (centres undefined)	-16	·	·	2596	-4.8	6	19
N#Cc1c(-c2ccccc2)nc(SCC(=O)Nc2ccccc2F)[nH]c1=O	-6	0	-3	2094	4.4	·	3
CC1(c2nnc(-c3cccc(Cl)c3)o2)CC(c2cccc([N+](=O)[O-])c2)=NO1 (centres undefined)	-17	14	12	3479	1.8	8	-26
O=C(OCc1nc2ccccc2s1)c1ccc([N+](=O)[O-])o1	-14	13	7	4706	10.0	1	9
COc1ccc(C2CC3(CC(C)(C)NC(=S)N3)Oc3cc(O)cc(C)c32)cc1 (centres undefined)	13	1	2	2160	2.7	12	-6
O=[N+]([O-])c1ccc2nc(-c3ccncc3)[nH]c2c1	-31	-4	9	6361	2.0	-9	4
CCN(CC)S(=O)(=O)c1ccc(NC(=O)CSc2nnc(-c3ccc(F)cc3)o2)cc1	-12	12	1	6465	5.8	-1	4
COc1ccccc1Cc1nc(-c2ccncc2)no1	-25	15	10	4378	3.4	-6	6
NS(=O)(=O)c1ccc(N=Nc2c(=O)[nH]n3c(=O)c4c([nH]c23)CCCC4)cc1	-23	21	4	2574	6.9	6	6
C=CCNC(=S)Nc1sc2c(c1C#N)CCCC2	-12	6	8	4468	9.2	-7	3
O=C(N/N=C/c1ccc([N+](=O)[O-])cc1)c1cc(-c2ccc3c(c2)OCO3)n[nH]1	3	·	·	4293	·	3	·
Nc1c(N(Cc2ccccc2)C(=O)COc2ccc(F)cc2Cl)c(=O)[nH]c(=O)n1Cc1ccccc1	0	-7	0	8885	-0.7	·	-3
CC1=NN(Cc2c(C)nn(Cc3ccccc3)c2C)C(C)(C)C1	-21	7	-7	4388	-1.1	-13	1
c1ccc2c(c1)Nc1cc3ccccc3cc1S2	-113	6	2	3015	-1.2	11	0
Cc1csc(SCC(=O)NC(C)c2ccccc2)n1 (centres undefined)	-31	17	12	4998	4.2	-2	8
COc1cc(CNc2ccc(C)c(C)c2)cc(OC)c1OC	-42	-5	-3	17356*	1.2	23	2
CCO[C@@H]1OC(C(=O)N2CCN(Cc3ccccc3)CC2)=C[C@H](c2ccc(Br)cc2)[C@H]1CCCO	-21	·	·	3446	·	5	·
Cc1nc(N)sc1C(=O)N1N=N1	-88	-6	-10	4410	2.8	-1	13
COc1cc(CN2CCC(C(=O)N3CCCC(C)C3)CC2)cc(OC)c1O (centres undefined)	-26	5	0	10231	2.0	8	-1
CN(C)C(=O)CSc1nnc(CCN)o1	-22	6	6	22720*	2.9	-1	5
C=CCn1cccc(C(=O)Nc2ccc(C)cc2)c1=O	-42	5	-1	3626	0.6	1	2
O=C(/C=C/Nc1ccc([N+](=O)[O-])cc1)c1ccc(Br)cc1	-46	·	·	2567	·	-1	·
Cc1ccc(NC(=O)c2ccc(OCC3CCCO3)cc2)cc1 (centres undefined)	-46	-5	3	9208	2.2	6	-2
COc1ccc(-c2nnc(SCC(=O)N(Cc3ccccc3)C(C)(C)C)o2)cc1OC	-15	15	6	9238	0.0	2	-16
O=C(/C=C/c1ccco1)Nc1ccccc1C(=O)O	-41	6	2	4215	7.3	8	-8
COc1ccc(S(=O)(=O)N2CCC(C(=O)NCc3cccs3)CC2)cc1	-17	13	12	4187	20	5	6
COc1ccccc1CC(=O)NCC(c1ccco1)N1CCCCC1 (centres undefined)	-18	7	6	4173	3.5	3	12
CCc1ccc(-c2cc3c(=O)n(CC(=O)N4CCCC4)nc(C)n3n2)cc1	-2	11	16	6144	-0.2	3	-3
Cc1onc(-c2ccccc2Cl)c1C(=O)NC(=S)NCC(=O)c1ccccc1	-15	10	1	2683	-0.6	2	-6

Given with two lines to a compound: entries from further up
Each structure is followed by: PrP 5UTR inh, Mtb hypoxia rep, Mtb hypoxia rep growth, Bead autofluor, Sa RN4220 lethal, BJeLR viability, ugtP null kill
> CC1=NN(Cc2c(C)nn(Cc3ccccc3)c2C)C(C)(C)C1
  -21, 7, -7, 4388, -1.1, -13, 1
> c1ccc2c(c1)Nc1cc3ccccc3cc1S2
  -113, 6, 2, 3015, -1.2, 11, 0

New compounds follow.
SMILES	PrP 5UTR inh	Mtb hypoxia rep	Mtb hypoxia rep growth	Bead autofluor	Sa RN4220 lethal	BJeLR viability	ugtP null kill
CCCCCCCNC(=O)COc1ccc2c(c1)C(=O)CC(C)(C)O2	-10	7	2	10834	-5.6	-8	4
O=C(NN=Cc1ccc([N+](=O)[O-])s1)c1ccncc1	·	·	·	·	26	·	21
Cc1cccc(C)c1NC(=O)COC(=O)c1c2c(nc3ccccc13)/C(=C\c1ccc3c(c1)OCO3)CCC2	-4	2	1	2446	11	·	-8
O=C(Nc1ccc(F)c(Cl)c1)Nc1cnccn1	-34	8	-1	2600	5.7	1	-3
CCC(C)N(C(=O)CSc1nc(C)nc2ccccc12)C1CCS(=O)(=O)C1 (centres undefined)	-13	-4	3	3261	2.2	·	2
COc1cccc(CNC(=O)C2CCC(=O)N(CCc3cccc(F)c3)C2)c1 (centres undefined)	-11	1	2	5939	1.0	-12	4
O=C(CN1CCN(S(=O)(=O)c2ccc(Br)cc2)CC1)Nc1ccc2c(c1)OCCO2	-6	·	·	5469	-0.1	0	0
Cc1ccc(-n2nc3ccc(NC(=O)c4ccco4)cc3n2)cc1	-57	13	5	3122	-13	-4	4
Cc1c(NC(=O)Nc2ccccc2Cl)sc(=S)n1C	-16	0	5	10284	5.7	5	-6
COc1ccccc1CN(C)C(=O)c1cc(-c2cccs2)nc2ccccc12	-10	2	4	3681	6.8	4	24
CC(C)c1ccc(/C=C/C(=O)NCCCN2CCOCC2)cc1	-10	-14	1	9169	-1.5	·	0
COc1ccc(-n2c(=O)c3c(C)c(C)sc3n(Cc3cccc(F)c3)c2=O)c(OC)c1	-4	4	11	4423	3.9	-5	9
CC1(C)Cc2c(sc(/N=C/N3CCOCC3)c2C#N)C(C)(C)N1	0	·	·	2225	·	-10	·
CCC(Cc1ccccc1)NC(=O)Cn1ncc2ccsc2c1=O (centres undefined)	-26	9	5	2035	2.4	-2	10
CCOc1cc(N2CCOCC2)c(OCC)cc1NC(=O)c1cnccn1	·	-3	1	2934	2.4	·	-3
Cc1ccc(C)c(NC(=O)CSc2nc3c(oc4ccccc43)c(=O)n2-c2ccccc2)c1	0	2	13	2202	0.4	0	-2
COc1ccccc1NS(=O)(=O)c1ccc(C)c(NC(=O)NCCCl)c1	-3	1	-7	4198	1.3	6	5
CCOC(=O)Cc1csc(NC(=O)CSc2nnc3ccccn23)n1	-6	3	-5	2527	2.8	1	1
COc1cccc2c1-c1c(C(=O)O)cccc1C2=O	-19	11	7	3501	3.3	-3	7
O=C(CSc1n[nH]c(-c2ccccc2F)n1)NCC(=O)Nc1ccc(F)c(F)c1F	-3	5	-2	3266	-6.2	-4	2

Whole records from above. Screens in order: PrP 5UTR inh, Mtb hypoxia rep, Mtb hypoxia rep growth, Bead autofluor, Sa RN4220 lethal, BJeLR viability, ugtP null kill
Record of COc1ccccc1NS(=O)(=O)c1ccc(C)c(NC(=O)NCCCl)c1 = -3, 1, -7, 4198, 1.3, 6, 5
Record of Cc1ccc(C)c(NC(=O)CSc2nc3c(oc4ccccc43)c(=O)n2-c2ccccc2)c1 = 0, 2, 13, 2202, 0.4, 0, -2
Record of CCC(Cc1ccccc1)NC(=O)Cn1ncc2ccsc2c1=O (centres undefined) = -26, 9, 5, 2035, 2.4, -2, 10
Record of CC(C)c1ccc(/C=C/C(=O)NCCCN2CCOCC2)cc1 = -10, -14, 1, 9169, -1.5, ·, 0

The listing continues:
SMILES	PrP 5UTR inh	Mtb hypoxia rep	Mtb hypoxia rep growth	Bead autofluor	Sa RN4220 lethal	BJeLR viability	ugtP null kill
COc1ccccc1CNC(=S)NC1CCCC1	-23	4	2	7225	5.7	-8	3
CN(C)CCCNC(=O)CC1C[C@H](C(=O)N2CCCCC2)[C@@]2(CCc3ccccc3)c3[nH]c4ccccc4c3CCN2C1=O (some centres undefined)	-26	10	11	2829	-3.7	·	3
COc1ccccc1NC(=O)Nc1cccc(C(=O)O)c1	-4	0	5	2569	1.0	0	2
Cc1ccc(-n2c(SCC(=O)N/N=C/c3c(C)nn(-c4ccccc4)c3C)nc3ccccc3c2=O)cc1	-14	·	·	2551	·	-4	·
O=C(CN(Cc1ccc(F)cc1)C(=O)CNS(=O)(=O)c1ccccc1)NCc1ccco1	-13	7	-1	5838	0.4	-18	6
CCCn1ncc([C@@H]2C[C@H]3CN(Cc4cccc(Cl)c4)C(=O)[C@]34CCCN24)c1C	-17	3	9	4562	0.9	-5	1
O=C(c1ccco1)N1CCN(C(c2ccccc2Cl)c2nnnn2CC2CCCO2)CC1 (centres undefined)	-21	·	·	2168	-2.4	-2	-1
COc1cc(/C=N/NC(=O)COc2ccc(Cl)cc2)ccc1OS(=O)(=O)c1ccc(C)cc1	-23	·	·	8450	·	-6	·
O=C(c1ccccc1)C1NC1c1ccccc1 (centres undefined)	-10	·	·	5725	1.9	-3	7
Cn1nc(-c2ccccc2)c2cc(C(=O)O)sc21	-11	7	-5	4368	6.4	-2	13
COc1ccc2c(c1)C(=O)N(Cc1ccccc1)C(=O)C2(C)C	-12	0	-16	4195	-6.2	-4	3
CC(=O)Nc1ccc(C(=O)OCC(=O)/C(C#N)=C(\C)N)cc1	-3	-2	-3	3491	4.8	19	2
O=C(NNC(=O)c1ccc(S(=O)(=O)N2CCOCC2)cc1)c1ccccc1	-14	4	10	3693	3.4	-7	2
COc1cc(C(=O)OC2CCOC2=O)c([N+](=O)[O-])cc1OC (centres undefined)	-4	-10	2	5535	4.1	-2	4
C#CCNC(=O)C1=CC(c2ccc(Br)cc2)CC(OCCCCO)O1 (centres undefined)	·	-2&9	-2&9	·	7.7&2.9	·	4&4
CCCc1c(C(=O)NN=Cc2ccccc2OCc2ccc(F)cc2)nnn1-c1nonc1N	·	2	-6	·	0.9	·	-1
CC(C)CCNC(=O)C(=O)Nc1ccc2c(c1)N(S(=O)(=O)c1cccs1)CCC2	-57	4	10	4191	8.5	20	13
O=C(O)c1ccc(CS(=O)(=O)c2cccc(C(F)(F)F)c2)o1	5	4	7	11186	5.8	2	-2
O=C1c2ccccc2C(=O)N1CCc1nc2ccccc2c(=O)n1-c1ccccn1	-15	·	·	3887	1.2	0	3
CCN1C(=O)c2cccc3c(S(=O)(=O)NCc4cccnc4)ccc1c23	-18	·	·	2751	3.9	-6	-3
CC(C)c1ccc(NC2CCCN(C(=O)c3ccc(N4CCOCC4)cc3)C2)cc1 (centres undefined)	-19	2	0	4750	-0.1	10	9
CCC(=O)c1cn(CC(=O)Nc2c(C)cccc2C)c2ccccc12	-21	-5	14	3251	-1.9	-7	-4
CCCCCN1CC(O)=C(c2nc3ccccc3[nH]2)C1=N	-75	-2	5	3404	1.9	-3	3
O=c1c2ccccc2nc2ccc(NCc3ccco3)nn12	-78	12	15	2868	6.1	1	-13
CC(Sc1nnnn1C1CCCCC1)C(=O)O (centres undefined)	-19	5	10	4378	2.8	-4	4
Cc1cc(C(=O)N(C)CC(=O)Nc2ccc(F)c(F)c2F)no1	-11	-6	0	5863	-1.3	5	-3
